Lassa entry inh = Lassa virus entry inhibition. Potency, µM (doses to about 37.9 µM), without a hit: top-dose activity change, negative = inhibition, hits mostly inhibitors. Lassa virus pseudotype entry inhibition, cell reporter; control for the full effect not named in the record. 1.2% of 300,000 active. AID 540256; active means well fitted inhibition curve with a large enough effect; inconclusive means small, poorly fitted or top-dose-only effect, or effect the other way; inactive means flat fitted curve, though single readings scatter; tested in HEK293 cells; also: % is scaled to controls: 0 for no effect and ±100 for the full control effect; nearly all actives have a fitted effect of over 50% in size; luciferase read-out
Cruzain Triton = inhibitors of Trypanosoma cruzi cruzain with detergent | P25779 | Potency, µM, inactives show max response, negative = inhibition, usual class: inhibitors | AID 1478 | 0.43% of 200,000 active | purified cruzain, Z-FR-AMC fluorescence, 0.01% Triton;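 also: plate controls were neutral wells for no effect and buffer without enzyme for full effect; nearly all actives have a fitted effect of over 40% in size; top concentration of the series not given in the record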
Target sequence (P25779 123-467 limits assumed): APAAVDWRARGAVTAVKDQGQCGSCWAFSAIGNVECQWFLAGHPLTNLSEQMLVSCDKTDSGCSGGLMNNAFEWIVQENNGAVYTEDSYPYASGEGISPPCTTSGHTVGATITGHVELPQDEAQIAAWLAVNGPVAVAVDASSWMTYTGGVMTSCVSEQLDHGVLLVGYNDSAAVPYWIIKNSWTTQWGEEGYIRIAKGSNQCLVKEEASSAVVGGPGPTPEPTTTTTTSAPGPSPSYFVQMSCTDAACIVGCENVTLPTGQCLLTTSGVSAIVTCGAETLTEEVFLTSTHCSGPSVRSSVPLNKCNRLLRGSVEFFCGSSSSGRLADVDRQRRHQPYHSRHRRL
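Detergent-containing run (0.01% Triton X-100) in acetate buffer pH 5.5 with 5 mM DTT: enzyme at 1.5 nM final, 15 min compound preincubation at room temperature, then 2 uM Z-FR-AMC substrate. Activity taken as 60 s fluorescence increase at 360/450 nm.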
2A StopGo = FMDV 2A StopGo reporter, luciferase signal; human cells with a luciferase reporter of 2A StopGo recoding; control for the full effect not named in the record; Potency, µM (titrated, usually from 57.9 µM), inactives show top-dose signal change, negative = less light; 1.2% of 410,000 active; AID 1159524; active = well fitted falling curve with a large enough effect; inconclusive = small, poorly fitted or top-dose-only effect; inactive = no such curve, though single readings can be large or run the other way; tested in HEK293T cells; also: % is scaled to controls: 0 for no effect and ±100 for the full control effect; nearly all actives have a fitted effect of over 45% in size; luciferase light after 4 h
Marburg entry inh = Marburg virus entry inhibition; Marburg virus pseudotyped entry inhibition, cell reporter; control for the full effect not named in the record; about a third of the inactives were read at about 46 µM; Potency, µM (titrated, usually from 37.8 µM), for the others: top-dose activity change, negative = inhibition, hits mostly inhibitors; 1.8% of 300,000 active; AID 540276; active = well fitted inhibition curve with a large enough effect; inconclusive = small, poorly fitted or top-dose-only effect, or effect the other way; inactive = flat fitted curve, though single readings scatter; tested in HEK293 cells; about a fifth of its hits are not listed in these tables; also: % is scaled to controls: 0 for no effect and ±100 for the full control effect; luciferase read-out
RE007 growth inh = less growth of the S. pombe RE007 Vpr strain; S. pombe RE007 Vpr strain, BacTiter-Glo ATP luminescence, 24 h; control for the full effect not named in the record; Potency, µM (series often up to 92.2 µM), for the others: at the highest dose activity change, negative = less growth; 0.21% of 360,000 active; AID 651644; active = well fitted falling curve with a large enough effect; inconclusive = small, poorly fitted or top-dose-only effect; inactive = no such curve, though single readings can be large or run the other way;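 also: % is scaled to controls: 0 for no effect and ±100 for the full control effect; nearly all actives have a fitted effect of over 50% in size; the assay follows cell death caused by Vpr and the record does not say whether a fall means rescue or toxicity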
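Fission yeast strain RE007, carrying one chromosomally integrated HIV-1 vpr copy, was seeded at OD 0.01 in PMG+AL medium with 23 nL pinned compound. After 24 h at 30 °C and 99% humidity, viability was read by BacTiter-Glo luminescence.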
Cruzain inh noDet = inhibitors of Trypanosoma cruzi cruzain without detergent. P25779. purified cruzain, Z-FR-AMC fluorescence, no detergent. Potency, µM, for inactives: max response, negative = inhibition, most hits filed as inhibitors. 2.3% of 200,000 active. AID 1476;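 also: plate controls were enzyme without inhibitor for no effect and buffer without enzyme for full effect; nearly all actives have a fitted effect of over 40% in size; top concentration of the series not given in the record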
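Purified cruzain at 1.5 nM, pre-incubated 15 min with compound at room temperature in 100 mM sodium acetate pH 5.5, 5 mM DTT, 0.00005% Triton X-100. Reaction started with 2 uM Z-FR-AMC; AMC fluorescence increase over 60 s gives rate.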
NS1 function inh = inhibitors of influenza NS1 protein function; S. cerevisiae slowed by influenza A NS1, growth recovery by OD600; Potency, µM (top dose mostly 46.1 µM), inactives show at the highest dose activity, positive = more growth; 0.4% of 270,000 active; active means well fitted rising curve with a large enough effect; inconclusive means small, poorly fitted or top-dose-only effect; inactive means no such curve, though single readings can be large or run the other way; also: nearly all actives have a fitted effect of over 50% in size
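S. cerevisiae expressing influenza A NS1, grown in glucose, washed, then diluted 1:100 into pH 6.0 -URA galactose medium with 23 nl compound. Growth recovery read as OD600; NS1-free strain serves as control.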
SARS PLpro yeast = blocks SARS-CoV papain-like protease in a yeast assay | Potency, µM (series often up to 32.9 µM), for the others: at the highest dose activity, positive = growth rescue | AID 485353 | S. cerevisiae expressing SARS-CoV PLpro, growth rescue; control for the full effect not named in the record | 0.19% of 330,000 active; active means well fitted rising curve with a large enough effect; inconclusive means small, poorly fitted or top-dose-only effect; inactive means no such curve, though single readings can be large or run the other way; also: 0% is about no effect; nearly all actives have a fitted effect of over 55% in size; growth read by luminescence after 48 h
* = called active by the depositor; ? = inconclusive; · = no result given; & = joins results of further samples; [ ] = remark or other dose. Unless noted, calls follow the shape of the dose curve; as a rule, active = well fitted curve in the direction sought with a large enough effect; inconclusive = small, poorly fitted or top-dose-only effect, or another doubt; inactive = no such curve, though single readings can be large; an effect the other way counts as inactive or inconclusive. Potency is read from the fitted curve at half-maximal effect.

SMILES | Lassa entry inh | Cruzain Triton | 2A StopGo | Marburg entry inh | RE007 growth inh | Cruzain inh noDet | NS1 function inh | SARS PLpro yeast
CCOc1ccc(-n2c(=S)sc3c(=O)[nH]c(SCC(=O)NC(C)CC)nc32)cc1 (stereo not given) | 2% | -4.9% | · | 3% | -3% | 24% | 11% | -4%
Cn1nnnc1SCCNCc1ccc(F)cc1 | ? | -0.4% | -6% | · | · | -3% | · | ·
Cc1nn(Cc2ccccc2)c(Cl)c1C(=O)NCc1ccc(C)n1C | -8% | 1.8% | -2% | -30% | -2% | ? | 14% | 2%
CCOc1ccc(CN2CCNC(=O)C2CC(=O)NCCCn2ccnc2)cc1 (stereo not given) | · | · | -9% | · | -8% | · | -2% | -3%
Cn1c(C(=O)O)cc2c(=O)n3ccccc3nc21 | · | · | -2% | · | -7% | · | 9% | 1%
O=C1N=C2SCCN2/C1=C\c1ccc(Cl)cc1 | ? | -0.4% | -17% | ? | -2% | -4% | 3% | -3%
NNC(=O)c1nn(-c2ccc(Cl)cc2)ccc1=O | 12% | 0.0% | 0% | ? | 21% | -1% | 8% | 2%
COc1ccc(NC(=O)c2cnc(N3CCCC3)nc2)cc1OC | 6%[46.1 µM] | -2.9% | 7% | · | · | -10% | · | ·
O=C1NC2(CCCCC2)C(=O)N1CC(=O)N(Cc1ccccc1)c1ccccc1 | ? | · | -13% | 22%[46.1 µM] | -8% | · | 12% | -9%
Cc1cc(C)c(OCCCCCn2ccnc2)c(C)c1 | · | · | -20% | · | -21% | · | -13% | -13%
COc1ccc(-c2noc(C3CC(=O)N(c4ccccc4)C3)n2)c(OC)c1 (stereo not given) | -3%[46.1 µM] | -2.6% | -4% | · | · | 18% | · | ·
c1ccc(-c2nnc(-c3ccco3)n2-c2ccccc2)cc1 | -10% | -1.8% | -9% | ? | -3% | -20% | -13% | -18%
COc1ccc(CCN(C(=O)c2ccc(F)cc2)C2=CC3CCC(C2)N3C)cc1OC (stereo not given) | 4% | -4.0% | -3% | 16% | 7% | 1% | -5% | 2%
CCOC(=O)Cn1c(=O)c2c(nc3n2CCN3c2ccc(CC)cc2)n(C)c1=O | ? | -6.6% | -8% | · | · | -5% | · | ·
CCCOc1ccc(C(=O)Nc2ccc(S(=O)(=O)NC3=NCCCCC3)cc2)cc1 | -24% | · | -26% | ? | -17% | · | · | 7%
COC(=O)/C(=C\c1cccnc1)NC(=O)c1ccc(OCc2ccccc2)cc1 | · | · | -12% | · | -8% | · | 0% | -3%
O=C(CNC(=O)c1ccc(Cl)cc1)NCCCn1ccnc1 | 2% | -0.8% | 3% | ? | 3% | 17% | -4% | 0%
CSCCC(NS(=O)(=O)c1ccc(Cl)cc1)C(=O)OCC(=O)NC12CC3CC(CC(C3)C1)C2 (stereo not given) | 1% | -11% | 0% | -22% | 18% | 2% | -8% | -3%
O=C(CNc1ccc2ccccc2c1)N/N=C/C=C/c1cccc([N+](=O)[O-])c1 | 2% | -5.1% | -8% | ? | -1% | ? | 0% | -20%
CSCc1cc(N2CCOCC2)nc(-c2ccccc2)n1 | -33% | · | -23% | ? | -7% | · | · | -8%
N=C1/C(=C\c2ccc(OC(=O)c3ccco3)cc2)C(=O)N=C2SC(N3CCCCC3)=NN12 | · | · | 15% | · | -3% | · | -7% | 3%
NC(=O)C1CCN(C(=O)c2ccc3nc(-c4ccccc4)c(-c4ccccc4)nc3c2)CC1 | ? | · | 25% | 2%[46.1 µM] | 11% | · | -15% | 29%
COc1ccc(NC(C)C(=O)N/N=C/c2c(O)ccc3ccccc23)cc1 (stereo not given) | ? | · | -4% | ? | 4% | · | 0% | -2%
c1cncc(CN=C2Nc3ccccc3CS2)c1 | 18% | · | 0% | 24%[46.1 µM] | 1% | · | · | 1%
COc1ccc(CCNC(=O)Cc2ccc3c(c2)OCO3)cc1OC | 0% | -5.6% | -9% | ? | 26% | 3% | 9% | 15%
COc1cccc(NS(=O)(=O)c2ccc3[nH]cc(C(=O)NCCCOC(C)C)c(=O)c3c2)c1 | 9% | -7.1% | ? | -9%[46.1 µM] | -20% | 4% | -6% | -2%
COc1ccc(COC(=O)c2ccc(N3CCCC3=O)cc2)cc1F | -17% | -1.0% | -22% | -10% | 6% | ? | -14% | -7%
CC(NC(=O)c1ccncc1)c1ccc(Br)cc1 (stereo not given) | 1%[46.1 µM] | · | -2% | -9%[46.1 µM] | 1% | · | · | ·
COc1ccc(OCC(O)CNc2ccc(Br)cc2)cc1 (stereo not given) | -17% | -14% | · | 23% | 4% | 5% | -22% | -32%
COc1cccc(NC(=O)C2CCN(S(=O)(=O)c3ccc4[nH]c(=O)ccc4c3)CC2)c1 | · | · | 0% | · | 3% | · | -1% | 3%
CN(CC(=O)NCc1cccnc1)S(=O)(=O)c1ccc(F)cc1 | 17%[46.1 µM] | · | -7% | 8%[46.1 µM] | 1% | · | -9% | 1%
CC(C)(C)c1ccc(C(=O)Nc2ccc(OCc3cc(=O)n4ccsc4n3)cc2)cc1 | 7%[46.1 µM] | -4.8% | ? | 5%[46.1 µM] | · | -9% | · | ·
N=c1sccn1CC(=O)Nc1ccc(Cl)c(S(=O)(=O)N2CCOCC2)c1 | 6% | 1.1% | -10% | ? | 3% | -5% | 3% | ?
Cc1cc(Cl)nc(SCC(=O)c2ccccc2)n1 | · | · | 34%[activator] | · | 0% | · | 5% | 1%
COC(=O)/C(=C1\Oc2ccc(C(C)(C)C)cc2S1)C(F)(F)F | 15% | 5.1% | 43%[activator] | ? | · | -5% | 4% | 0%
COc1ccc(Nc2c3c(nc4ccccc24)CCC3)cc1Cl | -27%[46.1 µM] | -8.7% | ? | ? | · | 9% | · | ·
COc1cccc(NC(=O)CSc2nc3ccccc3c3nc4ccccc4n23)c1 | -18% | -3.4% | -18% | 10% | 2% | ? | -10% | 13%
O=C(Nc1cccc(O)c1)c1cc(-c2ccc3c(c2)OCO3)on1 | ? | · | 11µM* | ? | -15% | · | -22% | -5%
COc1ccc(-c2onc(C)c2C)cc1S(=O)(=O)N1c2ccccc2CC1C (stereo not given) | ? | 1.2% | -21% | · | · | -7% | · | ·
O=C(N1CCN(c2ccccc2)CC1)C(F)(F)C(F)F | 5% | 0.1% | -3% | 0% | 2% | 8% | 0% | -1%
OCC(O)/C=N/Nc1nc(Nc2ccccc2)nc(Nc2ccccc2)n1 (stereo not given) | 12%[46.1 µM] | · | 17% | -36%[46.1 µM] | 4% | · | 18% | -3%
Cc1nnc2ccc(-c3cccc(C(F)(F)F)c3)nn12 | · | 0.3% | -10%&1% | · | -24%[18.4 µM] | 9% | · | ·
Cc1cc(C)cc(N2C(=O)c3nccnc3C2=O)c1 | 6% | -1.5% | -17% | ? | 2% | -2% | 7% | -7%
CCOC(=O)c1ccc(NC(=O)CSCCC(=O)O)cc1 | · | · | 8% | · | 7% | · | 0% | 1%
CC(C)C(=O)Nc1nnc(S(=O)(=O)N2CCCCCC2)s1 | ? | -2.4% | -18%&-5% | · | -13% | -8% | 12% | 4%
C#CCN1C(=O)C(O)(CC(=O)c2ccc3c(c2)OCCO3)c2ccccc21 (stereo not given) | · | -1.5% | -9% | · | 10% | -14% | -3% | -5%
CCCCc1nnc(NC(=O)C2CCN(c3ncnc4sc(C)c(C)c34)CC2)s1 | 2%[46.1 µM] | · | 0% | 0% | 0% | · | · | 5%
COCCCn1c(=O)c2ccccc2n(Cc2ccccc2C)c1=O | 22% | · | 0% | 23% | 2% | · | -7% | 3%
COC(=O)c1sc(N)c(C(=O)OC)c1CSc1nc2sc3c(c2c(=O)n1C)CCC3 | ? | 1.2% | -24% | ? | -4% | 6% | 1% | 4%
Cc1ccccc1NC(=O)COc1cccc2c1CCNC2=O | -8% | · | -2% | ? | 1% | · | · | 1%
COc1cc(C2C(C#N)=C(SC)NC3=C2C(=O)CCC3)ccc1O (stereo not given) | 4% | · | -14% | 4%[46.1 µM] | 1% | · | 3% | -1%
CC(C)n1c(SCc2ccccc2F)nc2c1c(=O)n(C)c(=O)n2C | · | -3.4% | ? | 0% | 7% | -7% | -51% | 7%
O=C(NCCN1CCOCC1)c1ccc2c(c1)ncn2C1CCCC1 | 8% | 0.2% | -7% | 11% | -11% | 0% | ? | -15%
Cc1ccc(-n2c3c(c(=O)[nH]c2=O)C(NC(=O)c2ccccc2F)(C(F)(F)F)C(=O)N3)cc1C (stereo not given) | 10%[46.1 µM] | -1.1% | -30% | -7%[46.1 µM] | · | -6% | · | ·
Cc1cc(SCC(=O)OCC(=O)NC(C)c2ccccc2)c(C)cc1Br (stereo not given) | 3% | -9.6% | -21% | 0% | -1% | 10% | -77% | -25%
Cc1ccc(CN2CCN(C3CCN(S(=O)(=O)N(C)C)CC3)C(=O)C2=O)cc1 | 19%[46.1 µM] | 2.7% | 1% | · | · | -3% | · | ·
O=C(O)C(=O)/C(=C\c1cccc2ccccc12)c1ccc2ccccc2n1 | ? | -8.6% | 23% | -23% | -9% | ? | 8% | -7%
CC(C)(C)NC(=O)C(c1ccccc1)N(C(=O)C1CSC(=O)C1)c1ccccc1 (stereo not given) | 23% | 3.9% | 25% | -4% | 11% | 0% | -6% | -1%
COC(=O)C1=CN(Cc2ccc(OC)c(OC)c2)C=C(C(=O)OC)C1c1ccccc1F | · | · | -17% | · | 20% | · | 13% | 2%
COc1ccccc1NC(=O)Nc1nc(CC(=O)NCc2ccc(F)cc2)cs1 | -1% | · | 40µM* | ? | 2% | · | · | -4%
Remaining list, next part:
SMILES | Lassa entry inh | Cruzain Triton | 2A StopGo | Marburg entry inh | RE007 growth inh | Cruzain inh noDet | NS1 function inh | SARS PLpro yeast
Cc1ccc(O)c(NC(=O)c2cc([N+](=O)[O-])ccc2Cl)c1 | -20% | · | ? | -18%[46.1 µM] | -18% | · | -2% | -1%
COCCCn1c(C(=O)NCCN2CCOCC2)cc2c(=O)n3ccccc3nc21 | 4% | · | -28% | 5% | 4% | · | 12% | -1%
O=C(CN1CCN(c2ccccn2)CC1)Nc1ccccc1Br | · | · | -13% | · | -4% | · | -5% | -3%
O=[N+]([O-])c1cnc(Nc2ccc(Cl)cn2)c([N+](=O)[O-])c1 | -14%[46.1 µM] | · | -26% | ? | -36% | · | -2% | 0%

Screens (PubChem)
